VDR inhibitor: blocks the human vitamin D receptor | VDR-SRC2-3 peptide fluorescence polarization, 2 h | Potency, µM, inactives show max response, negative = inhibition, actives largely listed as inhibitors | 0.93% of 400,000 active; active means well fitted inhibition curve with a large enough effect; inconclusive means small, poorly fitted or top-dose-only effect, or another doubt; inactive means no such curve, though single readings can be large or run the other way; further: series mostly up to about 120 µM
Target sequence (P11473 whole entry, looked up): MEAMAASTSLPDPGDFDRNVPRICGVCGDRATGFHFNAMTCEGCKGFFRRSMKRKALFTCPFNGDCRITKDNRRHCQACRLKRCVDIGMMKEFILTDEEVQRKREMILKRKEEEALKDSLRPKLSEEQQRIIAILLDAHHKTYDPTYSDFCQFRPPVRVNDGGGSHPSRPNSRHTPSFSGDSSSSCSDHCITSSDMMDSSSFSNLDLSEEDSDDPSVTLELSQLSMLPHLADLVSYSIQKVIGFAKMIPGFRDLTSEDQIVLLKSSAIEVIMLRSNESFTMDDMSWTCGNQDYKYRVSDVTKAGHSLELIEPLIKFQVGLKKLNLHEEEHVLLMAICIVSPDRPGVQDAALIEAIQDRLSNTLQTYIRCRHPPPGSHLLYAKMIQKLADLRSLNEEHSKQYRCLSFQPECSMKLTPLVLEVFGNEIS
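Inhibition of the VDR/SRC2-3 peptide interaction is quantified by fluorescence polarization. Compounds (23 nl, pintool) incubate with the reagents for 2 hours at ambient room temperature.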
* = called active by the depositor; ? = inconclusive; & = joins results of further samples. On the % scale 0 is the no-effect control and ±100 the full control effect; potency means the concentration at half of the fitted maximal effect. Not all compounds are listed. The share of hits here may be higher or lower than overall.

SMILES	VDR inhibitor
COc1ccc(-c2cc(C(F)(F)F)nc(S(=O)(=O)CCCC(=O)Nc3cc(C)on3)n2)cc1OC	?
Cc1ccc2c(CC(=O)NCc3ccc4c(c3)OCO4)coc2c1	12%
O=C(Nc1ccc(S(=O)(=O)NCC2CCCO2)cc1)c1ccc(Cl)cc1[N+](=O)[O-] (stereo not drawn)	-17%
CCOc1cccc2cc(C(=O)N3CCOCC3)c(=O)oc12	-5%
C(=N\Nc1nc(-c2ccccc2)cs1)/c1ccco1	-13%
Fc1ccccc1CSc1nnc(-c2cccs2)o1	10%
CNc1c([N+](=O)[O-])ncn1C	1%
Cc1ccc(S(=O)(=O)NCC(=O)OCC(=O)c2c(N)n(C)c(=O)n(C)c2=O)cc1	5%
O=C(COC(=O)c1cccc(S(=O)(=O)N2CCc3ccccc32)c1)NCc1ccco1	?
Cc1cc(C)c(C(=O)Nn2c(C)nc3ccccc3c2=O)cc1C	-8%

Sorted by the number under VDR inhibitor (smallest number first): three of the compounds above
SMILES	VDR inhibitor
CCOc1cccc2cc(C(=O)N3CCOCC3)c(=O)oc12	-5%
CNc1c([N+](=O)[O-])ncn1C	1%
Cc1ccc(S(=O)(=O)NCC(=O)OCC(=O)c2c(N)n(C)c(=O)n(C)c2=O)cc1	5%

Going on with the list:
SMILES	VDR inhibitor
Cc1sc(NC(=O)C2=COCCO2)c(C(N)=O)c1C	-11%
Cc1c(N2C(=O)/C(=C3\C(=O)N(CC(=O)O)c4ccccc43)SC2=S)c(=O)n(-c2ccccc2)n1C	?
Cc1ccc(CSc2cn(CC(=O)N3CCCCC3)c3ccccc23)cc1	6%
C=CCOc1ccc(/C(O)=C2/C(=O)C(=O)N(CCCN3CCOCC3)C2c2ccc(OC)cc2)cc1 (stereo not drawn)	-14%
COc1cc(CCC(=O)OCC(=O)Nc2c(Cl)cccc2Cl)cc(OC)c1OC	14%
Cc1ccn2c(NC3CCCC3)c(-c3ccccn3)nc2c1	7%
CC1CCN(CCCNC(=O)C2CC(=O)N(C3CCCCCC3)C2)CC1 (stereo not drawn)	-10%
COc1ccc(CC2S/C(=N/N=C/c3ccccc3O)NC2=O)cc1 (stereo not drawn)	12%
COC(=O)N[C@@H](c1cccc(C)c1)[C@@H](C)[N+](=O)[O-]	0%
CCCCc1c(C)c(C#N)c2nc3ccccc3n2c1Nc1c(C)n(C)n(-c2ccccc2)c1=O	-12%
COc1ccccc1CC(=O)Nc1cccc(S(=O)(=O)N2CCOCC2)c1	-12%
O=C(NC1CCCCC1)N1CCN(c2ccc([N+](=O)[O-])cc2)CC1	12%
C=C1C(=O)C=C2CN(C(=O)c3ccccc3)[C@@](Cc3ccc(F)cc3)(C(=O)OC)[C@@H]12	?
Cc1ccc(N(Cc2cccs2)C(=O)c2ccccc2[N+](=O)[O-])cc1	15%
CC(C)c1ccc(NC(=O)CNC(=O)Cn2ccc3ccccc3c2=O)cc1	7%&6%
Cc1nn(-c2ccc(NC(=O)c3ccncc3)cc2)c(C)c1Cl	22%
CC(C)Nc1c(N)c(=O)oc2ccccc12	2%
CS(=O)(=O)N1CCC(C(=O)NCc2ccncc2)CC1	-10%
Cc1ccc(-c2nn3c(C)nnc3c3ccccc23)cc1S(=O)(=O)NCc1ccccc1	6%
CCOc1ccc2oc(C(=O)NCc3nc4ccccc4[nH]3)c(C)c2c1	-12%
O=C(Cc1cccs1)Nc1c(C(=O)Nc2ccc(F)cc2)oc2ccccc12	9%
O=[N+]([O-])c1ccccc1S(=O)(=O)N1CCCc2ccccc21	6%
Cc1ccsc1C(=O)NCc1ccc(Cl)cc1	18%
O=[N+]([O-])c1cc(S(=O)(=O)O)cc([N+](=O)[O-])c1NN(c1ccccc1)c1ccccc1	-16%
CCN1CCN(C(=O)/C(=C/c2ccco2)NC(=O)c2ccccc2)CC1	-1%
COc1cc(OC)c(N2CC34C=CC(O3)C(C(=O)O)C4C2=O)cc1Cl (stereo not drawn)	25%
COc1ccc(CCNC(=O)C2COc3ccccc3O2)cc1OC (stereo not drawn)	6%
CC(C)N(C(=O)CSc1nc2ccccc2n1-c1ccccc1)C(C)C	6%
COC(=O)CN1C(=O)C(C)(C)Oc2ccc(C(=O)NC3CCCC3)cc21	7%
N#CCCN(C(=O)COC(=O)CNC(=O)c1cccs1)c1ccc(F)cc1	-6%
O=C(Nc1ccccc1C(=O)O)c1cc(S(=O)(=O)Nc2cccc(F)c2)ccc1Cl	3%
Cc1ccc(S(=O)(=O)c2nc(NC3CCS(=O)(=O)C3)sc2Cl)cc1 (stereo not drawn)	-10%
CCCCN1C(=O)C(NC(C)=O)c2ccccc21 (stereo not drawn)	6%
CCOP(=O)(O)c1ccccc1OCCOc1ccccc1P(=O)(O)OCC	-3%
O=C(Nc1nnc(C2CC2)s1)c1ccc(Cl)c(S(=O)(=O)N2CCc3ccccc3C2)c1	3%
CCCOc1ccccc1-c1nc2c([nH]1)c(=O)[nH]c(=O)n2C	-7%
O=C(O)CC(c1ccc(OC2CCCC2)cc1)N1C(=O)c2ccccc2C1=O (stereo not drawn)	-11%
O=C(CN1C(=O)/C(=C2/SC(=S)N(CCS(=O)(=O)O)C2=O)c2ccccc21)Nc1cccc(C(F)(F)F)c1	?
CSc1ccccc1NC(=O)COc1ccc2c(c1)OCO2	-9%
COc1ccc(C)cc1-n1nnnc1SCC(=O)Nc1cccnc1Cl	2%

Rewritten with the structure last: part of the list above.
VDR inhibitor	compound
-11%	O=C(O)CC(c1ccc(OC2CCCC2)cc1)N1C(=O)c2ccccc2C1=O (stereo not drawn)
?	O=C(CN1C(=O)/C(=C2/SC(=S)N(CCS(=O)(=O)O)C2=O)c2ccccc21)Nc1cccc(C(F)(F)F)c1
-9%	CSc1ccccc1NC(=O)COc1ccc2c(c1)OCO2
2%	COc1ccc(C)cc1-n1nnnc1SCC(=O)Nc1cccnc1Cl

Other entries.
SMILES	VDR inhibitor
Cc1ccc(-n2c(O)c(/C=N/Nc3ccc(S(=O)(=O)N4CCOCC4)cc3[N+](=O)[O-])c3ccccc3c2=O)c(C)c1	?
O=C(NCCc1c[nH]c2ccccc12)C1CCN(S(=O)(=O)c2ccccc2)CC1	10%
O=C(CCS(=O)(=O)c1ccc(Cl)cc1)N1CCCc2ccccc21	-18%
CCC1(C)Cc2c(sc3nn[nH]c(=O)c23)CO1 (stereo not drawn)	-18%
COc1ncnc(OC)c1S(=O)(=O)NCc1ccccc1	-7%
Cc1ccc(OCC(=O)NC2CC(C)(C)NC(C)(C)C2)cc1C	1%
O=C(c1ccccn1)N1CCCC(N2CCN(Cc3ccc4c(c3)OCO4)CC2)C1 (stereo not drawn)	-5%
Brc1ccc(CN2CCN(Cc3c[nH]c4ccccc34)CC2)cc1	0%
COc1cccc(OC)c1C(=O)Nc1c(C)n(C)n(-c2ccccc2)c1=O	-18%
O=C(CN1CCN(c2ccccc2F)CC1)c1ccc2c(c1)OCO2	14%
CCn1nc(C(=O)N2CCc3ccccc32)c2ccccc2c1=O	6%
CCN1CCN(C(=S)c2ccc(SC)cc2)CC1	?
COC(=O)[C@H](Cc1ccccc1)NC(=O)NC(C)CCc1ccccc1 (stereo partly drawn)	6%
CCCC1=C(C(=O)OCC)C(c2ccccc2OC)NC(=O)N1 (stereo not drawn)	4%
Cc1ccc(NC(=O)c2cccs2)cc1NC(=O)c1ccco1	-16%
CCOc1ccc(NC(=O)CSc2nnc(-c3ccc(C)cc3)c(-c3ccc(C)cc3)n2)cc1	9%
CC(C)CCn1c(SCCN2CCOCC2)nc2c1c(=O)[nH]c(=O)n2C	-15%
Cc1ccc(OCCn2cnc3c2c(=O)n(C)c(=O)n3C)cc1	16%
Cc1ccc(OCC(=O)N(Cc2nc(-c3ccccc3)no2)C(C)C)cc1C	2%
CC(=O)Nc1ccc(S(=O)(=O)N2CCN(CC3CC4C=CC3C4)CC2)cc1 (stereo not drawn)	9%
COc1cc(O)c(C(CCN2CCCCC2)c2ccc(N(C)C)cc2)c(OC)c1 (stereo not drawn)	-5%&1%
O=C(NCC(c1cccs1)N1CCOCC1)c1cc(S(=O)(=O)N2CCOCC2)ccc1F (stereo not drawn)	-19%
O=C(NCc1ccco1)c1cc([N+](=O)[O-])ccc1Cl	1%
CCCc1cc(=O)[nH]c2nnc(SCC(=O)N3CC(C)OC(C)C3)n12 (stereo not drawn)	2%
CCOC(=O)c1[nH]c2ccc(F)cc2c1N=C(C)N(CC)CC	11%
CCOc1ccccc1N1CCN(CC(=O)Nc2nnc(CC)s2)CC1	10%
O=C(COc1ccc(Br)cc1Cl)NC1CCCCC1	10%
CN(C)C(=S)Nc1nc2ccccc2s1	?
O=C(CSc1nc2ccc(Cl)cc2[nH]1)c1c[nH]c2ccccc12	-8%
O=C(NCc1ccc2c(c1)OCO2)C1CCCN(S(=O)(=O)c2cccc3nonc23)C1 (stereo not drawn)	-6%
Cc1cccc(NC(=S)NNC(=O)c2cc3c(s2)CCC(C)C3)c1C (stereo not drawn)	6%
CC(=O)c1cnc2nc(SCc3ccccc3)nn2c1C	-15%
CCN(C(=O)/C=C/c1ccc2c(c1)OCO2)c1ccccc1	-17%
CCC(C(=O)NC1CCCC1)n1c(SCc2cccc(C)c2)nc2ccncc21 (stereo not drawn)	2%
CC(=O)C1=NN(c2ccccc2)C(c2cccs2)N1c1ccc(N(C)C)cc1 (stereo not drawn)	16%
Cc1cc(C)n(-c2nnc(C)n2/N=C/c2cc(Br)ccc2OCc2ccccc2)n1	?
Cn1c(N)c(-c2ccccc2)c2ccc([N+](=O)[O-])cc2c1=O	-5%
O=C(CSc1nnc(CNc2ccccc2)o1)N1CCN(C(=O)c2ccco2)CC1	-1%
O=C(Nc1ccc2[nH]c(=O)c(=O)[nH]c2c1)c1cccc(F)c1	-8%
CCN(c1ccccc1)S(=O)(=O)c1csc(C(N)=O)c1	-16%

In another format: results already given.
Compound | VDR inhibitor
CC(C)Nc1c(N)c(=O)oc2ccccc12 | 2%
Cc1cccc(NC(=S)NNC(=O)c2cc3c(s2)CCC(C)C3)c1C (stereo not drawn) | 6%
O=C(Nc1ccccc1C(=O)O)c1cc(S(=O)(=O)Nc2cccc(F)c2)ccc1Cl | 3%
Cc1ccc(S(=O)(=O)c2nc(NC3CCS(=O)(=O)C3)sc2Cl)cc1 (stereo not drawn) | -10%
COc1cccc(OC)c1C(=O)Nc1c(C)n(C)n(-c2ccccc2)c1=O | -18%

Other results
SMILES	VDR inhibitor
O=C(Nc1cnc2sc3c(n2c1=O)CCCC3)c1ccc(F)cc1	5%
COc1ccc(NS(=O)(=O)c2cccc(C(=O)N3CCN(Cc4ccc5c(c4)OCO5)CC3)c2)cc1	2%
Cc1ccc(Cl)cc1NC(=O)c1cc(S(=O)(=O)N2CCOCC2)cn1C	1%&-1%
COC(=O)C1=C(C)NC(=O)CC1c1cc(Br)ccc1F (stereo not drawn)	0%
COc1ccc(S(=O)(=O)N(Cc2nc3ccccc3c(=O)[nH]2)C2CCCC2)cc1	-4%
CC(C)Sc1oc(-c2ccco2)nc1S(=O)(=O)c1ccccc1	3%
CCOc1cc(/C=N/Nc2ccc(C(=O)O)cc2)ccc1OC(=O)c1ccccc1C	12%
O=C(CCn1c(=O)oc2ccccc21)Nc1cccc(Br)c1	-7%
COc1ccc(CN(C)Cc2nc(Cc3cccc(F)c3)no2)c2cccnc12	-23%
Cc1ccc(Cl)c(NC(=O)CN2CCNC(=O)C2)c1Cl	-18%
O=C(Cn1ccc(NC(=O)OCc2ccccc2)nc1=O)NCCc1c[nH]c2ccccc12	-4%
CN(C)Cc1ccc(CNC(=O)c2ccc(Cl)c(S(=O)(=O)NC3CC3)c2)cc1	-20%
CCCCNC(=S)Nc1ccc(Cl)cc1	-3%
Cc1ccc(N(C)C(=O)N2CCN(S(=O)(=O)c3ccc(C)c(C)c3)CC2)cc1	-9%
CC1(C)Cc2ccccc2C(N/N=C/c2ccc(Cl)cc2)=N1	-2%
CCCNC(=O)C1CCN(c2nc3ccc(C)cc3[nH]2)CC1	1%
CSc1nc(Sc2cccc(Cl)c2)c2ccccc2n1	6%
COc1ccc(Cl)cc1Nc1ccc2cc(S(=O)(=O)N3CCCCC3)ccc2n1	6%
Cc1c(C(=O)Oc2cccc3cccnc23)oc2ccccc12	?
Cc1cc(NC(=O)CCCn2cc([N+](=O)[O-])cn2)n(Cc2ccc(F)cc2)n1	5%
Cc1nc2c(-c3ccccc3)c(C)nn2c(C)c1CCC(=O)NCc1ccc(Cl)cc1	-2%
COc1ccc(NC(=O)c2nnn(CC(=O)Nc3ccc4c(c3)OCO4)c2N)c(OC)c1	24%
CC(C)CNC(=O)CCSc1nc(-c2ccc3c(c2)OCO3)cc(C(F)(F)F)n1	-7%
C(COC1CC2CC1C1C2CC2OC21)OC1CC2CC1C1C2CC2OC21 (stereo not drawn)	-25%
O=C(NNC(=O)[C@@H]1CCCC[C@@H]1C(=O)O)Nc1ccccc1	-15%
COc1cccc(S(=O)(=O)c2nc(C)c3c(n2)CCC3)c1	2%
CN(C(=O)CSc1nnc(-c2ccc(F)cc2)c2ccccc12)C1CCS(=O)(=O)C1 (stereo not drawn)	12%
Cc1ccc(NCCCn2ccc(NC(=O)OCc3ccccc3)nc2=O)cc1C	-3%
N#Cc1ccc(C(=O)Nc2cc(S(=O)(=O)N3CCCC3)ccc2OCC(F)(F)F)cc1	-15%
O=C(COc1ccccc1)NCC(=O)NC1=NCCS1	16%
COc1ccc(CCNC(=O)c2c(O)c3cccc4c3n(c2=O)CC4)cc1	-7%

Screens: PubChem BioAssay, National Center for Advancing Translational Sciences (NCATS)
